GALR2 agonist = agonists of human galanin receptor 2 (GALR2) | GALR2-expressing cells, agonist activation read-out | activation, %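 (tested at 5 µM)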 | 0.48% of 140,000 active | AID 803;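 active = above mean plus 3 SD of all compounds, about 5% in these data, not always enough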;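 note: 0% = vehicle buffer wells and 100% = reference agonist at full effect; tested in CHO reporter cells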
HSV augment = HSV replication enhancement | HSV replication augmentation in cells, fold increase | maximum fold increase | 0.005% of 220,000 active;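 active = peak rise of 1.5-fold or more in the series; tested in PC3 cells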;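 note: first round at 10 µM; read as green reporter fluorescence; hits show the peak of a series up to 25 µM; 1 = signal of infected wells without compound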
PKD1 kinase inh = blocks activity of human protein kinase D1; PKD1 kinase fluorescence polarization assay; inhibition, %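 (about 10 µM by stock and volumes)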; AID 797; 0.056% of 200,000 active;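 active = inhibition of 50% or more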;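 note: controls were vehicle for no effect and a reference inhibitor for full effect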
Target sequence (Q15139 whole entry, looked up): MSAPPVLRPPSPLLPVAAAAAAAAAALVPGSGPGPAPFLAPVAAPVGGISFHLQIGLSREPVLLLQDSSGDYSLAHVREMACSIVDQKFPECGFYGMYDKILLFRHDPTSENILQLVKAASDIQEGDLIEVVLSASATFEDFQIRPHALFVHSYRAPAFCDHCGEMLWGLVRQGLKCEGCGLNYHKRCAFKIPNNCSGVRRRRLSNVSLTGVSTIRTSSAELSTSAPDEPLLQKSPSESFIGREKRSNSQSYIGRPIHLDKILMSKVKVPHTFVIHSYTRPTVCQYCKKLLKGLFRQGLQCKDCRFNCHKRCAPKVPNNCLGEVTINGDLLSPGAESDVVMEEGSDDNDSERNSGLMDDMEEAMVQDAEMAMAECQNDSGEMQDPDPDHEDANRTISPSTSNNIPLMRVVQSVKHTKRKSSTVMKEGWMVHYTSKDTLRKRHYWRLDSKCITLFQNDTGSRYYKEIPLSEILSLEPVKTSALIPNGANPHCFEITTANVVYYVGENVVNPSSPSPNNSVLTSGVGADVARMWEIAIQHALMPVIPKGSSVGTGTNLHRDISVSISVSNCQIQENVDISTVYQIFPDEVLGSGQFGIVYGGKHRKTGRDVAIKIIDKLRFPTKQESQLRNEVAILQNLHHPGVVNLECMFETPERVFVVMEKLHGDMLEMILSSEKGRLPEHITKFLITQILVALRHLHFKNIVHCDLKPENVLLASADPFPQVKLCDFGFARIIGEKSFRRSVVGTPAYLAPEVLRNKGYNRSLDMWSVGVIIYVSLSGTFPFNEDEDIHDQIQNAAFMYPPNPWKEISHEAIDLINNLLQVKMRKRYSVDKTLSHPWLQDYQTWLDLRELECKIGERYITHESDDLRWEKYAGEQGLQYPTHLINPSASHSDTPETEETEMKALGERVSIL
RGS16-Gao = RGS16-Galphao interaction regulator (human) | AID 1441 | 0.38% of 220,000 active | bead-based flow cytometry RGS16-Galphao binding, fluorescence; actives lie on both sides | binding response (% of control), % at 10 µM | O15492+P09471;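 active = below 25% or above 175%, edge rows of some plates excepted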;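 note: Galphao activated by GDP with aluminum fluoride before binding; 100% = wells without compound and 0% = beads without RGS; some results beyond the cut were filed as inactive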
Insulin prom inh = TRM-6 insulin promoter activity inhibition | TRM-6 cells (human fetal islet line), insulin promoter-eGFP reporter, imaging; reporter expression induced with tamoxifen | inhibition, % at 2 µM | 0.9% of 130,000 active;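 active = inhibition above the mean plus 3 SD, with well images judged a real hit on visual review, cut at about 60% in these data, passing the limit was not always enough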
Insulin prom inh cell count = also measured in Insulin prom inh; calls as there; normalized cell count, %; measured here: cell count, toxicity; reference of the scale not given here;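 cells exposed to compound for 48 h; stained nuclei by imaging scaled within each plate; lower means fewer cells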
HSV augment primary fold = second read-out of HSV augment, no call of its own (marks repeat the call); fold increase; compound at 10 µM; measured here: primary screen fold increase 10 uM; tested in PC3 cells;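 GFP signal in the first replicate; 1 = infected wells without compound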
* = called active by the depositor; i = inactive; nt = no result given.

SMILES	GALR2 agonist	HSV augment	HSV augment primary fold	PKD1 kinase inh	RGS16-Gao	Insulin prom inh	Insulin prom inh cell count
CN(C)S(=O)(=O)N(CC(=O)N(Cc1ccccc1)Cc1ccccc1)c1ccccc1	1.2	i	1	-14	95	-62	94
C(=C\CSc1nnnn1-c1ccccc1)/CSc1nnnn1-c1ccccc1	-1.3	i	0.83	-6	103	nt	nt
CCOC(=O)N1CCC(NC(=S)Nc2ccc3nc(N4CCN(CC)CC4)cc(C)c3c2)CC1	nt	i	0.82	3	99	nt	nt
Cn1ccnc1Sc1nnnn1-c1ccccc1	-1.5	i	0.82	3	93	-27	118
Cc1ccc(OCCCC(=O)Nc2ccc(Br)cc2)cc1	-3.1	i	1.1	4	98	14	136
Cc1ccc(CCNC(=O)CN2CCN(Cc3ccccc3F)C2=O)cc1	-2.0	i	1.1	-2	108	16	29
S=c1[nH]c2ccccc2o1	nt	i	1.1	0	104	-33	57
CC(=O)N1CCN(Cc2nc(C(c3ccccc3)c3ccccc3)no2)CC1	nt	i	0.95	0	104	-14	123
COC(=O)c1c(-c2ccc(OC)c(OC)c2)csc1N	-2.0	i	0.93	-3	98	80*	126*
Cc1c(C)n(CCC#N)c2ccc(Cl)cc12	-1.4	i	0.94	-12	108	nt	nt
CC(C)C(c1nnnn1C1CCCCC1)N1CCCc2ccccc21 (centres undefined)	-1.3	i	1.1	3	97	nt	nt
CCOC(=O)C1CCN(C(=O)c2sc3ncnc(N4CCC(C)CC4)c3c2C)CC1	-1.8	i	1.2	-6	105	-16	102
COc1ccc(CC(=O)NNC(=O)c2ccoc2C)cc1OC	-2.2	i	0.94	4	99	13	61
Cn1cnc2ccc([N+](=O)[O-])cc2c1=O	nt	i	0.94	-3	121	nt	nt
CCN1C(=O)N(C)C2(c3ccccc3)N(C)C(=O)N(C)C12c1ccccc1 (centres undefined)	-3.3	i	0.75	-6	91	nt	nt
c1ccc(Cn2ccc(-c3cnc(-c4ccccc4)s3)n2)cc1	-0.7	i	0.97	-3	102	4	100
CS(=O)(=O)N(CC(=O)Nc1cccc(F)c1)c1cccc([N+](=O)[O-])c1	-2.7	i	0.96	-4	106	-31	74
COc1cc2[nH]c3c(N4CCN(c5ccccn5)CC4)ncnc3c2cc1OC	-1.7	nt	nt	0	110	-93	112
CCc1ccc(OCC(=O)NC(NC(=S)Nc2ccc(C)cc2C)C(Cl)(Cl)Cl)cc1 (centres undefined)	-3.9	i	0.67	-1	102	nt	nt
O=C(CNc1ccccc1C(=O)O)c1ccccc1	nt	i	1.1	nt	101	nt	nt
CCOc1cccc2c1OC1(C)CC2NC(=O)N1Cc1ccccc1 (centres undefined)	nt	i	1.1	-1	104	-62	113
COc1ccccc1CNC(=O)CN(CCc1ccccc1)S(C)(=O)=O	nt	i	1	-4	102	nt	nt
CC(C)N(C(=O)COc1ccc(Br)cc1Cl)C(C)C	-3.2	i	0.91	-4	102	-17	72
CCCCOC(=O)C1=C(C)Nc2ncnn2C1c1ccc(OC)c(OC)c1OC (centres undefined)	0.4	i	0.96	-1	96	29	121
CCOC(=O)CCSCC(=O)N1N=C(c2cccs2)CC1c1ccc(C)cc1 (centres undefined)	0.2	i	1	-5	101	nt	nt

Brought forward from above: three compounds, followed by the next part.
SMILES	GALR2 agonist	HSV augment	HSV augment primary fold	PKD1 kinase inh	RGS16-Gao	Insulin prom inh	Insulin prom inh cell count
CC(C)N(C(=O)COc1ccc(Br)cc1Cl)C(C)C	-3.2	i	0.91	-4	102	-17	72
CCCCOC(=O)C1=C(C)Nc2ncnn2C1c1ccc(OC)c(OC)c1OC (centres undefined)	0.4	i	0.96	-1	96	29	121
CCOC(=O)CCSCC(=O)N1N=C(c2cccs2)CC1c1ccc(C)cc1 (centres undefined)	0.2	i	1	-5	101	nt	nt
CC(=O)c1ccc(N2C(=O)[C@@H]3[C@H](C2=O)[C@H]2c4ccccc4C=NN2[C@@H]3C(C)=O)cc1	nt	i	0.77	nt	105	nt	nt
CC(C)Oc1ccc(C(CC(=O)NCCCN(C)C)c2ccc(F)cc2)cc1 (centres undefined)	-0.4	i	0.96	4	154	17	104
C#CCOCCOCCOCCNc1nc(N2CCN(C(=O)[C@H]([C@@H](C)CC)n3cc([C@@H](N)Cc4ccc(O)cc4)nn3)CC2)nc(N2CCN(C(=O)[C@H](CCCCN)n3cc([C@@H](N)C(C)CC)nn3)CC2)n1 (some centres undefined)	nt	i	1.1	6	103	nt	nt
Cc1ccccc1-n1c(SCC(=O)Nc2ccc3c(c2)OCO3)nnc1-c1ccccn1	-0.5	i	0.95	-13	nt	-67	80
CC1(C)CC(=O)C2=C(C1)N(c1ccccc1)C(N)=C(C#N)C2c1cccnc1 (centres undefined)	0.0	nt	nt	2	98	14	42
CCCOc1c(OC)cccc1C1CC(=O)Nc2cc(OC)c(OC)c(OC)c21 (centres undefined)	-2.5	i	0.88	4	100	24	70
O=C(CN1C(=O)NC2(CCCCC2)C1=O)NCc1cccs1	-1.2	i	1.1	1	95	-40	79
O=C1CCCCCC1C1(O)C(=O)Nc2ccccc21 (centres undefined)	-0.3	i	0.93	8	89	9	116
COc1ccccc1OCc1nnc(SCC(=O)NCc2ccco2)n1-c1ccccc1	-0.7	i	1.1	-5	73	38	67
Cc1ccc(C2=NN3C(C2)c2ccccc2OC32C(=O)Nc3ccccc32)cc1 (centres undefined)	-1.3	i	0.87	-3	106	-24	133
CCCCC(=O)NC(N1CCCCC1)C(Cl)(Cl)Cl (centres undefined)	0.7	i	0.98	0	76	nt	nt
COc1ccccc1-c1nc2n(n1)C(c1ccccc1Cl)C(C(N)=O)=C(C)N2 (centres undefined)	-1.2	i	0.91	-13	105	nt	nt
O=C(Nc1nc(-c2ccc(-c3ccccc3)cc2)cs1)c1cc([N+](=O)[O-])ccc1N1CCOCC1	nt	i	1	-5	97	nt	nt
Cc1ccccc1Nc1c(-c2ccncc2)nc2ccc(Cl)cn12	nt	i	0.77	-9	104	nt	nt
C#CCn1c(S(=O)(=O)Cc2ccc(F)cc2)nc(-c2ccccc2)c1-c1ccccc1	-0.7	i	0.8	2	93	-34	88
O=C1c2ccccc2C(=O)N1Cc1nc(-c2ccncc2)no1	-1.9	i	0.97	4	120	26	75
Cc1csc(NC(=O)c2ccc3c(=O)n4c(nc3c2)CCCCC4)n1	-1.4	i	0.81	-1	103	32	112
CC(C)CCNC(=O)NC(=O)COC(=O)/C=C/c1cnc2ccccc2n1	-2.0	nt	nt	-1	101	nt	nt
COc1ccc(-c2nnc(SC(=O)N3c4ccccc4Sc4ccccc43)o2)cc1	-3.0	i	1.1	2	120	nt	nt
CCCCCCN1C=CC(=C2C(=O)c3ccccc3C2=O)C=C1	nt	i	1.1	-1	106	nt	nt
CCc1nnc(NC(=O)c2cccc(S(=O)(=O)N(C)c3ccc(OC)cc3)c2)s1	nt	i	0.94	5	104	nt	nt
C=CCC1(CC=C)CCCN1C(=O)CC1C(=O)NCCN1Cc1ccccc1OC (centres undefined)	nt	i	0.86	-5	98	nt	nt
O=C(NNc1cccc(Cl)n1)c1c(F)cccc1F	nt	i	1	3	101	27	108
CCCCCCCC(=O)N/N=C(/C)c1c(O)cc(C)oc1=O	-1.1	i	0.82	-6	101	nt	nt
COc1ccccc1CNC(=O)Cn1c(=O)oc2cc(Cl)ccc21	nt	i	1.1	nt	102	nt	nt

Not a retest: 4 of the compounds above.
SMILES	GALR2 agonist	HSV augment	HSV augment primary fold	PKD1 kinase inh	RGS16-Gao	Insulin prom inh	Insulin prom inh cell count
COc1ccccc1-c1nc2n(n1)C(c1ccccc1Cl)C(C(N)=O)=C(C)N2 (centres undefined)	-1.2	i	0.91	-13	105	nt	nt
O=C(Nc1nc(-c2ccc(-c3ccccc3)cc2)cs1)c1cc([N+](=O)[O-])ccc1N1CCOCC1	nt	i	1	-5	97	nt	nt
Cc1ccccc1Nc1c(-c2ccncc2)nc2ccc(Cl)cn12	nt	i	0.77	-9	104	nt	nt
C#CCn1c(S(=O)(=O)Cc2ccc(F)cc2)nc(-c2ccccc2)c1-c1ccccc1	-0.7	i	0.8	2	93	-34	88

Next entries follow:
SMILES	GALR2 agonist	HSV augment	HSV augment primary fold	PKD1 kinase inh	RGS16-Gao	Insulin prom inh	Insulin prom inh cell count
C=CCn1c(SCC(=O)Nc2cccc3ccccc23)nc(O)c(CC)c1=O	-1.4	i	0.74	-6	106	8	45
CCOc1ccc(CC(=O)Nc2cc(=O)n(C)c(=O)n2C)cc1	nt	i	0.85	-3	105	nt	nt
c1ccc(N2CCN(c3nc(-c4cccs4)nc4ccccc34)CC2)cc1	1.0	i	1	-3	101	16	107
CCOC(=O)CSc1cc(C)nc2ccc(OC)cc12	nt	i	0.92	-8	104	41	121
O=C(NCCC1=CCCCC1)c1coc(=O)c(Br)c1	1.0	i	0.76	-12	105	2	100
OC(CC1CC12c1ccccc1-c1ncccc12)(c1ccccc1)c1ccccc1 (centres undefined)	-0.6	i	0.99	-4	101	29	125
CCNc1nc(Cl)nc(N(NC(C)=O)C(C)CC)n1 (centres undefined)	-0.3	i	1	2	100	-37	187
COc1ccc(-n2c(SC3CCOC3=O)nc3ccccc3c2=O)cc1Cl (centres undefined)	nt	i	0.92	2	106	-29	47
O=C(NCc1cccnc1)C1CCN(S(=O)(=O)N2CCC3(CC2)OCCO3)CC1	-1.0	i	1	4	98	25	85
CC1(C)CC(=O)C=C(NNC(=O)c2ccccc2)C1	-0.3	i	1	-12	8.0*	7	160
CC(=O)Nc1ccc2c(c1)nc1n2CCOC1	-1.6	i	1.1	0	102	44	64
Cc1nc2ccc(C(=O)NCc3ccc4c(c3)OCO4)cc2s1	nt	i	0.98	-5	112	nt	nt
CC1CCCN(c2ccc(C(=O)OCC(=O)N3c4ccccc4Sc4ccccc43)cc2[N+](=O)[O-])C1 (centres undefined)	-1.9	i	0.89	13	101	-3	141
Cc1c(O)ccc(C(=O)CN2CCN(Cc3ccc4c(c3)OCO4)CC2)c1O	-1.0	i	0.98	5	104	nt	nt
CN1Cc2cccc3c2C(Cc2ccccc2S3)C1 (centres undefined)	0.6	i	0.97	0	103	-72	107
Cc1cccc(C(=O)Nc2ccc(NC(=O)Cc3ccc(Cl)cc3)cc2)c1	2.0	i	1	1	102	24	99
COc1ccc(Nc2ccc3nnc(-c4ccc(Br)cc4)n3n2)cc1	1.7	i	0.96	-8	101	2	153
CCCCCCOc1ccc(-c2ccc(C#N)cn2)cc1	-1.2	i	1	-8	99	-8	43
CCN(CC)C(=O)C1CCCN(c2ccc([N+](=O)[O-])cc2/C=N/NC(=O)c2cccc(O)c2)C1 (centres undefined)	-2.2	i	0.91	5	102	-44	89
O=C(NCc1ccccc1)C12CC3CC(CC(Cl)(C3)C1)C2	nt	i	1	nt	101	nt	nt
COc1cc(C(=O)OCC(=O)NCc2ccccc2)cc(NC(=O)c2ccco2)c1OC	0.8	i	0.51	4	107	32	112
Cn1ccnc1SCC(=O)n1c2c(c3ccccc31)CCCC2	-0.1	i	0.97	-7	16	nt	nt
NC(=O)CSc1ncnc2c1oc1ccccc12	-2.1	i	1.1	1	78	nt	nt
O=C(NNC1CC(=O)N(c2cccc(Cl)c2)C1=O)c1cccnc1 (centres undefined)	0.1	i	0.92	8	108	nt	nt
Cc1cc(C)c2nc3nc(C)cc(C)c3c(N)c2c1	0.7	i	0.9	3	113	nt	nt
Continued.
SMILES	GALR2 agonist	HSV augment	HSV augment primary fold	PKD1 kinase inh	RGS16-Gao	Insulin prom inh	Insulin prom inh cell count
Clc1ccc(Cc2nc(-c3ccncc3)no2)cc1	nt	i	0.98	1	98	nt	nt
CCOC(=O)c1c(-c2ccccc2)oc2ccc(O)c(CN(C)C)c12	-2.5	i	0.68	2	100	34	117
O=S(=O)([N-]c1nc2ccccc2nc1-[n+]1ccccc1)c1ccc(F)cc1	nt	i	0.86	-2	105	nt	nt
O=C(COC(=O)c1cccc(C(=O)OCC(=O)NCc2ccc(F)cc2)n1)NCc1ccc(F)cc1	-1.5	i	0.96	-4	112	-113	91
Nc1ncncc1-c1ccc([N+](=O)[O-])cc1	-2.1	i	1.1	-7	103	nt	nt
COC(=O)C(C)NC(=O)COc1ccc2ccccc2c1 (centres undefined)	nt	i	0.97	-10	95	nt	nt
CC1(C)N=C(c2ccccc2)C(=O)N1	-4.6	i	0.99	-1	62	-10	128
CC(C)[C@H](NC(=O)c1ccccc1Cl)C(=O)NC1CCCCCC1	nt	i	1	-2	101	nt	nt
COc1ccc(OC)c(NC(=S)NCc2ccccc2OC)c1	nt	i	0.77	-4	103	nt	nt
COc1cc(CN2CCNC(=O)C2CC(=O)O)cc(OC)c1 (centres undefined)	nt	i	1	-5	165	26	60
Cc1ccc(NC(=S)/C(=C(\[O-])c2ccc(Cl)s2)[n+]2cccc(CO)c2)cc1C	nt	i	0.99	0	99	nt	nt

Records above that bear a hit mark in RGS16-Gao.
SMILES	GALR2 agonist	HSV augment	HSV augment primary fold	PKD1 kinase inh	RGS16-Gao
CC1(C)CC(=O)C=C(NNC(=O)c2ccccc2)C1	-0.3	i	1	-12	8.0*

Bioassay records deposited in PubChem BioAssay by several laboratories.

Outcome played no part in choosing rows; overall some 1.3% were active at least once.
